BJeLR lethal – BJeLR cell viability loss; BJeLR (HRASV12) viability, CellTiter-Glo ATP luminescence, 48 h; reference of the scale not given here; inhibition, % (test concentration not listed); 300,000 compounds, 0.17% hits; AID 1554;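 active = replicate mean above 50%; inconclusive = above 50% but judged a plate artefact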;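 note: 50 nL library stock added to about 25 µL; numbers are from one replicate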
Sa RN4220 lethal – kills Staphylococcus aureus RN4220; S. aureus RN4220 growth, OD600, 16 h; inhibition, % (concentration not given with the values); 330,000 compounds, 0.33% hits; AID 1259311;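 active = z-score of -3 or lower and OD600 up to 0.18 on both plates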;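 note: plate controls were untreated cells for no effect and reference antibiotic for full effect; stock transfer was 100 nL into about 80 µL; one replicate is shown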
Bead autofluor – flagged as autofluorescent in microsphere protease counterscreen; compound autofluorescence counterscreen, microsphere flow cytometry; stronger effect = higher value; fluorescence intensity (test concentration not listed); 360,000 compounds, 3.1% hits;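 active = at least 3 SD above the mean of all compounds, about 16000 in these data; inconclusive = too few beads counted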;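 note: 100 nL of 1 mM stock went into each well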
Mtb hypoxia rep – Mtb hypoxia fluorescent reporter inhibition; M. tuberculosis hypoxia-regulated fluorescent reporter, fluorescence; fluorescence inhibition, % (concentration not given with the values); 300,000 compounds, 0.1% hits; AID 1159583;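 active = 35 to 45% if threefold the growth effect, above 45% if 1.5-fold the growth effect; inactive = the rest, general growth blockers included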;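 note: wells of about 50 µL received 100 nL stock; 0% = vehicle wells and 100% = reference inhibitor wells; whole bacteria with a GFP reporter of the hypoxia response; strong numbers were not always called active; many hits fall short of the cut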
PrP UTR inh – inhibition of PrP 5' UTR reporter expression. cell-based PrP 5' UTR mRNA reporter, plate reader. inhibition, % (test concentration not listed). 340,000 compounds, 0.35% hits. AID 488862;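 active = every replicate at 50% or more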;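 note: 0 = median of the neutral control wells; tested in H4 reporter cells; numbers are from one replicate; inactives centre near -14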
ugtP null kill – compounds lethal to S. aureus RN4220 ugtP deletion mutant; OD600 growth, 16 h; some inactives read as strong as hits; growth inhibition, % (test concentration not listed); 330,000 compounds, 0.54% hits; AID 1259309;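 active = z-score under -3 and OD600 up to 0.15 on both plates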;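 note: plate controls were untreated wells for no effect and antibiotic for full effect; wells of about 80 µL received 100 nL stock; the first replicate is given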
Mtb hypoxia rep growth – second read-out of Mtb hypoxia rep, no call of its own (marks repeat the call); growth inhibition, %; measured here: M. tuberculosis growth (absorbance);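 0% = vehicle and 100% = reference antibiotic; read after six days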
Starred values were filed as active, the others as inactive; ? = inconclusive; . = not tested or not shown.

SMILES | BJeLR lethal | Sa RN4220 lethal | Bead autofluor | Mtb hypoxia rep | Mtb hypoxia rep growth | PrP UTR inh | ugtP null kill
O=C(NCc1ccccc1F)c1ccc(S(=O)(=O)NCc2ccco2)cc1 | . | 3.2 | 5370 | 9 | -3 | -17 | 5
Cc1cccn2c(=O)c(/C=C(\C#N)S(=O)(=O)c3ccccc3)c(N3CCCCC3)nc12 | 0 | 17 | . | 15 | 8 | . | 10
CC1CCN(c2nc3c(c(=O)[nH]c(=O)n3C)n2CC(C)CSc2nnnn2-c2ccccc2)CC1 (stereo not drawn) | -2 | 4.1 | 8669 | -1 | 5 | -4 | 4
COC/C=C/C1=CC2=CC(=O)C(C)(OC(=O)c3cnc4ccccc4n3)C(=O)C2=CN1Cc1ccccc1 (stereo not drawn) | -5 | . | 3014 | . | . | -18 | .
Cc1cc2nccc(-c3ccco3)n2n1 | -6 | 4.2 | 2086 | -2 | -5 | -16 | 4
COc1ccc(-n2c(-c3ccc(Cl)cc3Cl)n[nH]c2=S)c(OC)c1 | 4 | . | 3726 | . | . | -28 | .
CCOCc1cc(=O)[nH]c(SC)n1 | 15 | -2.3 | 3543 | -8 | -15 | -15 | 0
Cc1cc(C(=O)CCl)c(C)n1CCc1ccc(Cl)cc1 | -1 | 93* | 3537 | 19 | 24 | 5 | 97*
COc1ccc(OC)c(NC(=O)C2COc3ccccc3O2)c1 (stereo not drawn) | 1 | 2.7 | 5857 | . | . | -9 | 7
Cc1c(NC(=O)C(C)OC(=O)c2cc3c4ccccc4n(C)c3s2)c(=O)n(-c2ccccc2)n1C (stereo not drawn) | 4 | -4.1 | 5047 | -16 | 1 | 4 | -6
CCC(C)[C@H](N)c1cn([C@@H](Cc2cc3ccccc3[nH]2)C(=O)N2CCNCC2)nn1 (stereo partly drawn) | -1 | -8.0 | 5141 | 10 | 1 | -6 | -4
Cc1ccc(-c2nnc(Cc3ccc([N+](=O)[O-])cc3)o2)cc1 | 18 | 4.2 | 4989 | . | . | . | -1
Cc1cc(C)c(S(=O)(=O)N(C)CC(=O)NC2CCCC2)c(C)c1 | 12 | 3.4 | 6276 | 10 | 4 | -15 | 5
CCOC(=O)c1cccc(NC(=O)CSc2nnc(COc3ccccc3C)o2)c1 | -4 | -3.0 | 12777 | -1 | 10 | -16 | -3
O=C(Nc1ccccc1)c1nc[nH]c1C(=O)NCCCCCCNC(=O)c1[nH]cnc1C(=O)Nc1ccccc1 | . | 5.8 | 3792 | 8 | 3 | -3 | 14
Cn1c(=O)oc2cc(S(=O)(=O)N3CCN(c4ccccn4)CC3)ccc21 | 3 | -16 | 4979 | 6 | 4 | -23 | -4
COc1ccc(CN(C)CC(=O)Nc2ccc(Cl)cc2C(F)(F)F)c(OC)c1 | -6 | 6.1 | 2271 | 13 | 14 | -17 | 55
CC(=O)Nc1ccc(S(=O)(=O)Oc2cccc(N3C(=O)C4CC=CCC4C3=O)c2)cc1 (stereo not drawn) | -1 | 11 | 6986 | 15 | 6 | -30 | -10
CCOC(=O)c1ccc(S(=O)(=O)N2CCN(C3CC(=O)N(c4ccc(OC)cc4)C3=O)CC2)cc1 (stereo not drawn) | . | -2.0 | 3363 | 11 | 8 | -13 | 3
N#C/C(=C(/O)COC(=O)c1ccc2c(c1)OCCO2)c1nc2ccccc2[nH]1 | -1 | . | 4586 | . | . | -7 | .
Fc1ccc(-n2cc(CNCCc3cccnc3)c(-c3ccccc3Cl)n2)cc1 | 2 | 5.1 | 3747 | 11 | -2 | -12 | 0
COc1cccc(C(=O)NCCN2CCN(c3ccccc3)CC2)c1 | 2 | 4.4 | 3093 | 6 | 12 | -48 | 13
CC(=O)Nc1ccc(C=NN2CCCCC2)cc1 | . | 1.4 | . | 7 | 18 | . | 0
O=C(CCn1nnc2ccccc21)OCC(=O)c1ccc(F)cc1 | -8 | -0.8 | 3609 | 5 | 1 | -11 | 7
COc1ccc(/C=C/c2c(-c3ccc(OC)cc3)sc3cc(OC)c(OC)cc23)cc1 | . | -1.6 | 3616 | 0 | 4 | -7 | -2
Continued.
SMILES | BJeLR lethal | Sa RN4220 lethal | Bead autofluor | Mtb hypoxia rep | Mtb hypoxia rep growth | PrP UTR inh | ugtP null kill
CCOC(=O)CC(NS(=O)(=O)c1ccc2[nH]cc(C(=O)O)c(=O)c2c1)c1ccc(OCC)c(OC)c1 (stereo not drawn) | 0 | 1.2 | 5538 | 7 | -3 | -12 | 5
C/C(=N\NC(=O)c1ccc(-c2ccccc2)cc1)c1ccco1 | -2 | . | 3797 | . | . | -29 | .
CCCCCC(=O)Nc1nc(C)c(-c2csc(Nc3cc(Cl)ccc3C)n2)s1 | 8 | -4.9 | 4206 | 5 | 0 | -14 | -18
NC(=O)CN1C(=O)C(=O)N(Cc2ccc(Cl)cc2)C1=O | -5 | 1.4 | 3814 | 7 | 4 | -2 | 1
O=c1[nH][nH]c(-c2ccccc2)c1C=Nc1cccc(Cl)c1 | 0 | 0.5 | 3663 | 6 | 6 | -8 | 3
CCCNC(=O)N1CCC(c2ccc3c(c2)OCO3)CC1 | -4 | 4.0 | 4274 | 22 | 17 | -50 | 0
CC(C)NC(=O)C12CC3CC(C1)CC(C(=O)NC(C)C)(C3)C2 | 0 | 2.0 | 2276 | 5 | 6 | -10 | -1
COc1ccc(CCNC(=O)CCc2nnc(Cc3ccc4c(c3)OCO4)o2)cc1 | -2 | -0.6 | 6653 | -2 | 2 | -22 | 2
Cc1noc(C)c1C(=O)N(C)CC(=O)Nc1ccc(F)c(F)c1F | 6 | . | 6964 | . | . | 4 | .
COc1ccc(S(=O)(=O)N2CCn3c2nc2ccccc23)cc1 | -1 | -0.2 | 2644 | . | . | 4 | 6
COc1ccccc1NS(=O)(=O)c1cc(C(=O)NCC(c2cccs2)N2CCOCC2)ccc1C (stereo not drawn) | 9 | 0.7 | ? | 5 | 1 | -9 | 15
CCN1C(=O)C(CC(=O)Nc2ccc(OC)cc2)N(Cc2ccc(OC)c(OC)c2)C1=S (stereo not drawn) | -1 | 0.6 | 4726 | 7 | 5 | . | 1
Cc1ccc(S(=O)(=O)N2CCCCC2)cc1C(=O)Nc1ccccn1 | -3 | 0.0 | 6002 | 5 | 4 | -15 | 4
CCOc1ccccc1CNCc1ccc(C(=O)O)cc1 | -1 | 2.4 | 4985 | -1 | -4 | -20 | 2
Cc1ccc(N(Cc2cc3ccc(C)cc3[nH]c2=O)C(=O)c2ccco2)c(C)c1 | 10 | 1.8 | 4981 | 9 | 5 | -15 | -6
O=C(CSc1nnc2ccccn12)N1CCOCC1 | -3 | 0.9 | 10884 | 8 | 15 | -14 | 0
Cc1ccc(CNS(=O)(=O)c2c(C(=O)N3CCCCC3)c(C)n(C)c2C)o1 | 14 | 2.2 | 5605 | 17 | 8 | -11 | 4
COCCN(C(=O)C1CCC1)c1c(N)n(CC(C)C)c(=O)[nH]c1=O | . | 7.6 | 4066 | 0 | -3 | -5 | 10
CCn1ncc([N+](=O)[O-])c1C(=O)Nc1cc(C)on1 | 4 | -0.3 | 2475 | 1 | 2 | -22 | 14
C#CCSc1nsc(SCC#C)c1C#N | -9 | 9.2 | 7288 | -5 | 6 | -31 | -1
CC(C)(C)NC(=O)c1cc(NC(=O)c2ccco2)cc(NC(=O)c2ccco2)c1 | 1 | 5.2 | 3045 | . | . | -4 | -1
COc1ccc(Cc2nnc(NC(=O)c3ccccc3F)s2)cc1OC | -11 | 0.8 | 3609 | 8 | 6 | -21 | 3
CC(C)(C)NS(=O)(=O)c1ccc2c(c1)oc(=O)c1cc(S(=O)(=O)NC(C)(C)C)ccc12 | 1 | 1.3 | 11231 | -2 | 1 | -10 | -4
CCCCN1C(N)=NCC1c1ccccc1 (stereo not drawn) | . | 5.3 | . | 5 | 7 | . | -13
O=C(COC(=O)/C=C/c1cccc(F)c1)NC1CCCC1 | . | 2.2 | 3908 | -6 | 2 | -2 | 1

4 of these compounds, reformatted:
Every second line gives: BJeLR lethal | Sa RN4220 lethal | Bead autofluor | Mtb hypoxia rep | Mtb hypoxia rep growth | PrP UTR inh | ugtP null kill
CC(=O)Nc1ccc(C=NN2CCCCC2)cc1
 : . | 1.4 | . | 7 | 18 | . | 0
O=C(CCn1nnc2ccccc21)OCC(=O)c1ccc(F)cc1
 : -8 | -0.8 | 3609 | 5 | 1 | -11 | 7
COc1ccc(/C=C/c2c(-c3ccc(OC)cc3)sc3cc(OC)c(OC)cc23)cc1
 : . | -1.6 | 3616 | 0 | 4 | -7 | -2
CCOC(=O)CC(NS(=O)(=O)c1ccc2[nH]cc(C(=O)O)c(=O)c2c1)c1ccc(OCC)c(OC)c1 (stereo not drawn)
 : 0 | 1.2 | 5538 | 7 | -3 | -12 | 5

The listing continues.
SMILES | BJeLR lethal | Sa RN4220 lethal | Bead autofluor | Mtb hypoxia rep | Mtb hypoxia rep growth | PrP UTR inh | ugtP null kill
CC(=O)NC(NC(=S)Nc1cccc(Br)c1)C(Cl)(Cl)Cl (stereo not drawn) | -6 | -4.0 | 3902 | -1 | 1 | -8 | -8
CC(=O)c1cccc(NC(=O)N2CCOCC2)c1 | 1 | -2.0 | 6461 | 5 | 5 | 4 | -1
CCCCn1c(N)c(N(CCOC)C(=O)CSc2ccc([N+](=O)[O-])cc2)c(=O)[nH]c1=O | . | 1.9 | 3810 | 7 | -1 | -5 | 2
NC(=O)C1=C[C@@H](c2ccccc2)C[C@@H](OCc2ccc(CO)cc2)O1 | -5 | . | 2961 | . | . | -24 | .
O=C(NC1CC(=O)c2sccc21)c1cccc(C(F)(F)F)c1 (stereo not drawn) | -5 | 4.6 | 3143 | 13 | 2 | 4 | 10
O=C(COC(=O)[C@@H]1CCCN1C(=O)c1cccs1)Nc1cccc([N+](=O)[O-])c1 | . | -2.7 | 4082 | 3 | -3 | -28 | -2
O=C(N/N=C/c1cccs1)/C(=C/c1ccccc1)NC(=O)c1ccccc1 | 3 | . | 9560 | . | . | -15 | .
CC(=O)c1ccc(N(C(=O)Cn2nnc3ccccc32)C(C(=O)NC2CCCCC2)c2cn(C)nc2C)cc1 (stereo not drawn) | -1 | 22 | 2545 | 0 | -8 | -5 | 21
CCCOc1ccc(CNC(=S)Nc2ccccc2)cc1Cl | 1 | 2.2 | 3665 | -1 | 6 | 5 | 0
Cc1ccccc1C(=O)NCC(=O)OCCCOC(=O)CNC(=O)c1ccccc1C | -4 | 0.2 | ? | -2 | 0 | -15 | -1
O=C1CCC(C(=O)NCc2ccccc2)N1 (stereo not drawn) | -8 | 1.9 | 3857 | 1 | 2 | -28 | 7
Cc1ccc(S(=O)(=O)N(CCC(=O)NCc2ccccc2F)c2ccccc2)cc1 | . | 6.9 | 8844 | 10 | 3 | -13 | 4
COc1ccc([N+](=O)[O-])cc1Nc1ncnc2ccccc12 | -5 | 4.4 | 2156 | 13 | 6 | -9 | 1
COc1ccccc1N(CC(=O)NCc1ccccc1C)S(=O)(=O)c1ccc(C)cc1 | 11 | 4.5 | 4166 | -1 | -2 | -20 | -9
O=c1nc(N2CCOCC2)nc2n1CCO2 | -3 | 0.8 | 4958 | . | . | -21 | 1
Cc1ccc2c(CC(=O)Nc3cccc(S(=O)(=O)N4CCOCC4)c3)coc2c1 | 9 | -6.1 | 3415 | 11 | 0 | -21 | -1
O=C(NCCCc1ccc(F)cc1)C1CCC(=O)N(CCN2CCOCC2)C1 (stereo not drawn) | 15 | 1.0 | 6376 | 15 | 3 | 2 | -2
COCCN(Cc1ccccc1)C(=O)c1ccc(C(=O)c2ccccc2)cc1 | . | 2.9 | 6618 | 0 | 3 | 0 | 6
COc1cc(C(c2nnnn2C2CCCC2)N2CCN(C)CC2)cc(OC)c1OC (stereo not drawn) | 5 | 0.9 | 2200 | . | . | -4 | -1
CCOC(=O)C1(CC2CCCCO2)CCN(C2CCSCC2)CC1 (stereo not drawn) | 0 | 2.2 | 2488 | 6 | 5 | -27 | 1
N#C/C(=C/c1ccc(N2CCOCC2)o1)C(=O)N1CCOCC1 | -17 | 2.1 | 2012 | 25 | 3 | -18 | -2
O=C(CCN1C(=O)C2CCCCC2C1=O)Nc1nc2ccc(F)cc2s1 (stereo not drawn) | . | 4.2 | 3173 | 4 | -4 | -9 | 3
Cc1ccc(CNC(=O)CCCn2nc(C)n3ccnc3c2=O)cc1 | -10 | -1.6 | 5683 | 4 | 4 | -29 | 3
O=C(NC(=S)NC(c1ccccc1)c1ccncc1)c1ccccc1 (stereo not drawn) | 6 | 1.5 | 1963 | 14 | 1 | -34 | -20
O=C(Nc1ccccc1Oc1ccccc1)c1cnccn1 | -3 | -1.8 | 7318 | 6 | 7 | -7 | -9

Compounds were not picked by outcome. Share with any hit: about 4%.
